FGF22 binding: binders of recombinant human FGF22 by thermal shift | SYPRO orange fluorescence; percent of sucrose octasulfate shift, DMSO zero | calls only at 9.99 µM | 1.5% of 340,000 active | AID 651658;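 active = melting point raised past a set limit in the mean and every replicate; inconclusive = no clear call; three in four hits are not shown here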
Target sequence (Q9HCT0 whole entry, looked up): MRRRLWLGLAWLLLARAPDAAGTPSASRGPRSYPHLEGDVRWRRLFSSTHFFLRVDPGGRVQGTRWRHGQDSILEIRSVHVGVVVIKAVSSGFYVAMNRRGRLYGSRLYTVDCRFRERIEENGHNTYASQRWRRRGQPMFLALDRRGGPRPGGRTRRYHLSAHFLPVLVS
HNF4A DNA FP: change in binding of human HNF4 alpha to DNA; P41235; HNF4a-FITC DNA binding, fluorescence polarization, 1 h; activity change, % at 10 µM; 0.3% of 360,000 active; AID 1224865; in the data active = activity change above about 30%, passing the limit was not always enough;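 also: controls were the assay level and a saturating level of protein; the project sought stronger binding though the title names inhibitors; some compounds called inactive have numbers as strong as hits; positive values seem to mean higher polarization but the record does not say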
Beta2AR agonist: human beta-2 adrenergic receptor agonism by FAP | P07550 | Am2.2-beta2AR cells, FAP receptor internalization, flow cytometry; reference of the scale not given here | response, % (test concentration not listed) | 0.43% of 340,000 active;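 active = response above a set limit, near 3 SD of response in nonfluorescent compounds, cut at about 42% in these data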;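 also: stock transfer was 100 nL into about 11 µL; a reference agonist was the positive control; negative values mostly stem from fluorescent compounds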
E coli growth: blocks Escherichia coli growth; OD600, 23 h; active compounds read low; OD600 absorbance (test concentration not listed); 0.21% of 330,000 active; AID 1053175;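 active = OD600 absorbance below the run mean of sample wells minus 3.6 SD, in any replicate, cut at about 0.56 in these data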;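 also: stock transfer was 300 nL into about 60 µL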
ALR inh: blocks human ALR sulfhydryl oxidase activity | purified ALR, DTT oxidation, H2O2 HRP-luminol luminescence | inhibition, % (no concentration beside the values) | 3.8% of 290,000 active | AID 485317;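 active = mean and each replicate at 75% or more; inconclusive = only one of the two met; inactive = neither met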;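 also: stock transfer was 7.5 nL into about 7.5 µL; 0% = neutral wells and 100% = wells with inactivated enzyme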
Target sequence (P55789 whole entry, looked up): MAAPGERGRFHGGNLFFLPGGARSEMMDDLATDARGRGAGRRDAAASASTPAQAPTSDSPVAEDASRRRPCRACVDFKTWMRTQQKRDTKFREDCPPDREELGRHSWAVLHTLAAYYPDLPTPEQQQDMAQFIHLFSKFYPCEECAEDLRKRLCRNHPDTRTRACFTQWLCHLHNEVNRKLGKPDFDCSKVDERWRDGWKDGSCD
rRNA inh HTS: inhibits bacterial ribosomal RNA function over humanized ribosomes | E. coli WT GFP vs humanized-ribosome RFP mutants, fluorescence, 24 h; active compounds read low; DMSO median 0, no signal -100 | GFP signal change (wild-type ribosome), % (concentration not given with the values) | 1.6% of 350,000 active;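 active = significant combined selectivity score with lowered wild-type GFP, culture density cut under 30%, mutant RFP and density less affected; inactive = any of these conditions unmet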; also: one replicate is shown; some compounds called inactive have numbers as strong as hits
UCH37 DUB inh: human UCH37 deubiquitinating enzyme inhibition; Q9Y5K5; purified proteasome/UCH37, Ub-AMC cleavage fluorescence; inhibition, % (test concentration not listed); 0.33% of 330,000 active; AID 588478;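 active = mean of two replicates above 20%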;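 also: 0% = compound-free wells with enzyme and 100% = wells lacking proteasome; stock transfer was 100 nL into about 20 µL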
Target sequence (Q9Y5K5 whole entry, looked up): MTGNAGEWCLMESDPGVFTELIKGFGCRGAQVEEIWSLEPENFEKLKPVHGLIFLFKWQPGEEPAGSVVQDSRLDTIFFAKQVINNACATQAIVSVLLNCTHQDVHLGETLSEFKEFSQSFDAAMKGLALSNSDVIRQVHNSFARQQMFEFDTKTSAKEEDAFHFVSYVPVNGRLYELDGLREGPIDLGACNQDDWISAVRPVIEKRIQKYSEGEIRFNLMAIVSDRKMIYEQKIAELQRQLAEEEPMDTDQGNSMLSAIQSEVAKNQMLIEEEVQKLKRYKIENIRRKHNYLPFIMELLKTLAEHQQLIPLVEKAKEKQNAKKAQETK
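Assay system: Proteasome-bound UCH37. Buffer or medium: pH 7.4 Tris-HCl (50 mM) with ovalbumin, ATP-MgCl2, DTT. Incubation: 30 min preincubation with enzyme, 25 min cleavage at room temperature. Measured by: fluorescence, ex 355 nm, em 460 nm. Read-out basis: percent inhibition. Control set: wells without proteasome as full block, compound-free enzyme plus substrate as uninhibited.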
rRNA inh HTS OD600: second read-out of rRNA inh HTS, no call of its own (marks repeat the call); OD600 change, %; measured here: OD600 growth;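 optical density of the mix in the first replicate; 0 = DMSO median and -100 = no signal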
rRNA inh HTS RFP: second read-out of rRNA inh HTS, no call of its own (marks repeat the call); RFP signal change, %; measured here: RFP humanized mutant strains;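 first replicate; 0 = DMSO median and -100 = no signal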
* = called active by the depositor; i = inactive; ? = inconclusive; . = not tested or not shown. These rows are one share of the data (hit frequency here may not be typical).

smiles	FGF22 binding	HNF4A DNA FP	Beta2AR agonist	E coli growth	ALR inh	rRNA inh HTS	rRNA inh HTS OD600	rRNA inh HTS RFP	UCH37 DUB inh
COC1CCCCC1Nc1cc(C)cc(C)c1 (stereo not drawn)	i	-0.2	-1	0.7	2	12	6	1.5	-0.2
COc1ccc(CCNC(=O)c2nn(C)cc2Cl)cc1	i	1.0	8	0.71	-2	3	6	0.0	6.2
Cc1ccc2nc(C3CCN(C(=O)NCc4ccccc4)CC3)[nH]c2c1	.	1.0	0	0.64	-3	.	.	.	2.8
CC(=O)c1cc2c(cc1NC(=O)C1CCC1)OCO2	i	-4.1	-13	0.63	1	-2	0	-2.3	-21
CC(/C=C/c1ccc(Cl)o1)=C\C(=O)O	.	-2.9	-3	0.67	4	.	.	.	3.7
CC(=O)COc1ccccc1OC(=O)c1ccco1	.	2.7	4	0.71	19	.	.	.	6.3
CC1CCN(C(=O)COC(=O)C2CCN(S(=O)(=O)c3c(Cl)cccc3Cl)CC2)CC1	i	-0.4	-10	0.65	.	-7	-14	3.3	0.3
COC(=O)[C@@]12C[C@@H](CC(=O)NCCc3ccccc3OC)C(=O)N(Cc3cccc4ccccc34)C1=CCC(C)(C)C2	i	-3.6	.	.	.	16	11	-0.1	.
CCOC(=O)c1cc(C#N)c(C)nc1N(CC)CC	i	0.2	-5	0.65	2	16	10	1.8	5.1
O=C(c1ccc2c(c1)OCCO2)N1CCCCC1	.	0.0	0	0.72	0	.	.	.	0.6
CCCNC(=O)C(CC)NC(=O)c1ccc(C#N)cc1 (stereo not drawn)	i	0.3	-5	0.68	-2	2	8	-4.7	0.4
COc1cccc(NC(=O)Cn2c(=O)n(-c3ccccc3)c(=O)c3sccc32)c1	i	0.5	-10	0.71	-2	6	4	5.0	-1.3
Cc1ccc(C(=O)N/C(=C\c2cccs2)C(=O)NC2CCCCC2)cc1	i	0.6	-1	0.64	3	-25*	-18*	-0.4*	6.1
CCN(CC(=O)Nc1ccc(OC)cc1)CC(=O)Nc1ccc(Cl)cc1F	i	-1.8	-10	0.68	-6	-6	-10	10	2.4
CC(=O)Nc1ccc(N2C(=O)CC(c3ccccc3)CC2=O)cc1	.	1.7	-1	0.7	-11	.	.	.	4.0

Overlap with the part before: two entries; new compounds follow.
smiles	FGF22 binding	HNF4A DNA FP	Beta2AR agonist	E coli growth	ALR inh	rRNA inh HTS	rRNA inh HTS OD600	rRNA inh HTS RFP	UCH37 DUB inh
CCN(CC(=O)Nc1ccc(OC)cc1)CC(=O)Nc1ccc(Cl)cc1F	i	-1.8	-10	0.68	-6	-6	-10	10	2.4
CC(=O)Nc1ccc(N2C(=O)CC(c3ccccc3)CC2=O)cc1	.	1.7	-1	0.7	-11	.	.	.	4.0
CCCc1nnc(NC(=O)C(C)N2C(=O)C3C4C=CC(C4)C3C2=O)s1 (stereo not drawn)	.	-0.2	2	0.72	13	.	.	.	0.5
Cc1ccccc1OCC(O)COc1ccccc1C	i	1.3	0	0.68	.	.	.	.	1.3
CC(=O)NC(CC(=O)OCC(=O)c1c(N)n(C)c(=O)n(C)c1=O)c1ccccc1 (stereo not drawn)	i	-2.5	14	0.67	-8	24	17	2.3	1.6
O=C(C1CCCN(c2ncnc3c2nc2n3CCCCC2)C1)N1CCCCC1 (stereo not drawn)	i	-2.9	-6	0.7	-1	-3	-14	-0.9	2.2
COc1ccc(/C=C/C(=O)c2ccc(Cl)cc2)c(OC)c1	.	6.2	3	0.67	3	.	.	.	-4.9
COc1ccccc1C(CCNS(=O)(=O)c1ccc(C)cc1)c1ccco1 (stereo not drawn)	i	0.1	11	0.73	-5	-21	-40	-4.0	-0.5
Cc1ccnc(SCc2cc(=O)c(OC(=O)c3ccc(Cl)c([N+](=O)[O-])c3)co2)n1	.	-4.1	6	0.69	45	.	.	.	-0.2
COc1ccc(N=Cc2ccccc2O)cc1	.	3.6	2	0.65	.	11	15	-0.4	0.7
O=Cc1ccc(OC(=O)/C=C/c2ccccc2)cc1	i	-0.2	5	0.68	10	1	8	0.6	2.7
CC(C)(C)NC(=O)COC(=O)c1ccc2c(c1)C(=O)N(Cc1ccco1)C2=O	i	-1.1	-3	0.66	-21	1	0	9.2	4.6
COc1ccc(N2CCN(C(=O)[C@@H](NC(=O)c3ccccc3Cl)C(C)C)CC2)cc1	i	-0.1	-1	0.66	37	-5	2	2.7	4.9
CCN(CC(=O)Nc1ccccc1C(F)(F)F)C(=O)c1ccc(=O)n(Cc2ccccc2)n1	i	3.3	0	0.7	17	1	-8	4.5	1.3
Cc1cc(C)cc(C(=O)OCC(=O)NCc2ccco2)c1	i	-1.3	6	0.67	0	.	.	.	3.0
CCN(CC)S(=O)(=O)c1ccc(N2CCOCC2)c(NC(=O)Cc2ccccc2)c1	.	3.5	3	0.71	-4	.	.	.	-1.4
NNC(=O)c1nnn(-c2nonc2N)c1CN1CCc2ccccc2C1	i	2.8	3	0.66	18	3	1	1.3	2.5
CC(=O)Nc1ccc(Nc2cc(-c3ccccc3)nc3ncnn23)cc1	i	1.1	-1	0.7	.	10	6	-14	-7.3
CC(C)Cc1ccc(/C=C/C(=O)NC2CC2)cc1	i	0.4	1	0.64	-8	10	2	-1.4	-0.7
C=CCNCCCOc1ccc(Cl)cc1C(C)(C)C	i	4.5	4	0.63	-2	-53	-78	-17	2.3
COc1ccc(CNC(=O)CNC(=O)c2cccs2)c(OC)c1	i	4.2	-3	0.71	-1	11	17	4.6	2.6
Cc1ccccc1NCCNc1ccccc1C	.	3.3	8	0.66	99*	.	.	.	0.7
CCc1ccccc1Nc1nc(N)nc(COC(=O)CCS(=O)(=O)c2ccccc2)n1	i	-1.1	8	0.69	24	-1	-1	1.1	1.2
O=C(NCCn1cc(SCc2ccc(F)cc2)c2ccccc21)c1c(F)cccc1F	i	-4.4	2	0.72	?	-4	-15	-3.6	0.8
CC(C)CNc1ncnc2c1cnn2Cc1ccc(Cl)cc1	i	-1.1	-6	0.66	-5	-36*	-17*	-0.9*	2.5
O=C(O)C(O)C(O)c1nc2ccccc2[nH]1 (stereo not drawn)	i	-2.9	2	0.68	0	12	17	4.1	-0.5
COc1ncnc2c1NC1=C(S2)C(=NCCC(=O)O)CC(C)(C)C1	.	1.6	5	0.77	71	.	.	.	2.0
Cc1cc(-c2cc(-c3ccc(Cl)cc3)on2)nc(NCC2CC2)n1	i	0.2	-4	0.72	1	8	3	-5.6	11
CCOC(=O)C(Cc1ccc(O)cc1)NC(=O)CCc1c[nH]c2ccccc12 (stereo not drawn)	i	-1.9	5	0.68	20	10	10	0.4	1.5
COc1ccccc1CNC(=O)CN(C)S(=O)(=O)c1ccc(Br)s1	i	1.1	-3	0.69	-14	-5	-10	-1.2	0.9
O=C(NCCC1=CCCCC1)c1ccc([N+](=O)[O-])cc1	.	3.1	-7	0.73	.	.	.	.	10
CC(C)(C)[C@H]1COC(=O)[C@@H](Cc2ccc(F)cc2)C/C=C\C[C@@H](CC(=O)N[C@@H](CO)Cc2ccccc2)C(=O)N1	i	-1.2	-1	.	0	3	-1	2.0	5.7

Some values from above.
O=C(NCCn1cc(SCc2ccc(F)cc2)c2ccccc21)c1c(F)cccc1F | Beta2AR agonist: 2
O=C(NCCC1=CCCCC1)c1ccc([N+](=O)[O-])cc1 | E coli growth: 0.73

Additional structures follow:
smiles	FGF22 binding	HNF4A DNA FP	Beta2AR agonist	E coli growth	ALR inh	rRNA inh HTS	rRNA inh HTS OD600	rRNA inh HTS RFP	UCH37 DUB inh
O=C(Nc1ccccc1CC[N+](=O)[O-])N1CCN(c2ccccc2)CC1	i	-2.5	-3	0.68	68	0	2	3.6	3.7
CCN(CC)C1CCN(C(=O)c2ccc(OC3CCN(C(=O)CCOC)CC3)cc2)C1 (stereo not drawn)	i	-2.8	.	.	.	11	6	-1.3	.
O=C(O)c1cc(Sc2ccc(Br)cc2)nc2ccccc12	i	6.2	1	0.7	.	-40	-48	-11	6.7
COc1ccc(NC2CS(=O)(=O)CC2NCc2ccco2)cc1 (stereo not drawn)	.	-0.1	11	0.74	99*	.	.	.	-0.2
Cc1c(C(=O)c2ccccc2)c2ccccn2c1CCc1ccccn1	i	-2.0	-24	0.67	37	8	3	16	8.4
CCCCN1C(=O)Nc2ccccc2S1(=O)=O	i	-0.7	-3	0.71	-3	.	.	.	1.6
CNS(=O)(=O)c1cccc(C(=O)OCc2cc(=O)oc3c(C)c(O)ccc23)c1	i	-4.6	6	0.69	52	-28	-44	-1.8	-28
Cc1cc(=O)oc2cc(OCC(=O)NC(Cc3c[nH]c4ccc(O)cc34)C(=O)O)c(Cl)cc12 (stereo not drawn)	i	-4.9	-6	0.71	-4	5	15	-0.4	3.3
O=C(NCC1CCCO1)c1onc(CSc2ccc(F)cc2)c1C(=O)O (stereo not drawn)	i	-2.6	-7	0.68	4	6	-8	-1.5	3.0
COc1ccc(C(C)=O)cc1COC(=O)c1ccc2ccccc2n1	.	3.2	2	0.73	1	-5	-8	1.2	1.9
O=C(NC1CCOCC1)C1CCC(=O)N(Cc2ccc(Cl)cc2)C1 (stereo not drawn)	i	-1.4	9	0.69	-5	-2	11	-1.8	0.9
COc1cc(CSc2ncn[nH]2)c(OC)cc1CSc1ncn[nH]1	.	-2.0	10	0.67	-11	.	.	.	2.1
Cc1c(N/C=C/C(=O)c2ccc(Cl)cc2)c(=O)n(-c2ccccc2)n1C	i	-0.7	-1	0.69	.	3	3	2.2	9.9
Cc1cc(=O)oc2cc(OCc3ccc(C(=O)OCC(=O)NC4CCS(=O)(=O)C4)cc3)ccc12 (stereo not drawn)	i	-10	5	0.76	-11	5	-1	-3.2	-5.5
O=C(Nc1ccccn1)c1ccc(CN(c2ccccc2)S(=O)(=O)c2ccccc2)cc1	i	4.0	4	0.7	5	10	3	-1.9	-0.7
Cc1ccc2oc(=O)c3cnn(CC(=O)N(CCN(C)C)Cc4ccco4)c3c2c1	i	2.5	1	0.75	.	-3	2	5.4	2.0
CCn1nnc(NC(=O)COc2cc(C)ccc2C(C)C)n1	.	0.5	3	0.73	-1	.	.	.	-0.1
Cc1ccc2nc(N3CCN(C(=O)c4ccccc4F)CC3)c(C#N)cc2c1	i	2.9	7	.	.	-20	-35	-0.2	.
CCCN(CC(=O)Nc1ccccc1C)C(=O)/C=C/c1ccc(OCC)c(OC)c1	i	1.2	-3	0.67	-12	-7	-2	0.4	-17
CCN(CC(=O)Nc1ccc(C(C)=O)cc1)CC(=O)Nc1ccccc1C(F)(F)F	i	2.8	-2	0.66	13	2	0	0.0	3.2
Cc1noc(C)c1S(=O)(=O)N1CCC(C(=O)N2CCN(c3ccccc3Cl)CC2)CC1	.	4.5	3	0.77	-13	.	.	.	2.4
O=S(=O)(Cc1noc(-c2ccc(Cl)cc2)n1)Cc1ccco1	i	14	6	0.65	-4	16	-1	9.2	0.8
O=C(CNC(=O)N1CC(=O)Nc2ccccc21)Nc1ccccc1	i	3.3	-20	0.69	1	2	8	-1.0	-2.2
COc1ccc(-c2cc(C)nc(SCc3cccc(C(=O)O)c3)n2)cc1	i	-3.6	1	0.71	60	-17	-5	10	5.0
O=S(=O)(c1ccc(F)cc1)N1CCn2c(nc3ccccc32)C1	i	3.9	-19	0.77	-15	-2	-2	0.5	3.1

Source: PubChem BioAssay (several laboratories)
